Compound activity: PubChem, Broad Institute
NOMO-1 viab – NOMO-1 AML cell viability reduction, primary screen, STK33 inhibitor project, CellTiter-Glo luminescence | inhibition, % (no concentration beside the values) | NOMO-1 AML viability, 72 h | hit rate 7.5% among 37,000 | AID 2330, 2010;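 active means most replicates above 80%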;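 further: wells of about 30 µL received 25 nL stock; 0% = median of vehicle wells and 100% = reference inhibitor level; the first replicate is given; inactives centre near 10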
* = called active by the depositor. An excerpt, so the mix of outcomes need not match the whole.

SMILES	NOMO-1 viab
Cc1noc(C)c1NC(=O)Nc1ccc2c(c1)C(=O)N([C@H](C)CO)C[C@@H](C)[C@@H](CN(C)C)O2	4
CC1(C)C(=O)[C@@H]2C[C@@]3(O)C4=CC(=O)O[C@@H](c5ccoc5)[C@]4(C)CCC3[C@@](C)(C2=O)[C@H]1CC(=O)O (some centres not stated)	2
Cc1c(/C=C2\SC(c3ccccc3)=NC2=O)c(=O)n(-c2ccccc2)n1C	11
Cc1noc(C)c1NC(=O)Nc1ccc2c(c1)C(=O)N([C@@H](C)CO)C[C@@H](C)[C@H](CN(C)Cc1ccc(C(=O)Nc3ccccc3N)cc1)O2	15
COc1ccc2cc(C3CC(c4ccc(OC)c(OC)c4)=NN3C(=O)c3ccco3)c(Cl)nc2c1 (configuration not stated)	46
C/C=C(\C)CC(/C=C(\C)C(O)C(C)/C=C(\C)C(O)C(C)/C=C/C(O)C/C=C/C(O)C(O)C(=O)O)C(=O)O (configuration not stated)	22
Clc1ccc(Nc2nnc3c4ccccc4c4ccccc4c3n2)cc1	30
Cc1cccc(-n2c(N)cc(=O)nc2SCC(=O)Nc2ccccc2C#N)c1	14
C[C@@H]1CN([C@@H](C)CO)C(=O)c2cccc(NC(=O)Nc3ccc(C(F)(F)F)cc3)c2O[C@@H]1CN(C)Cc1ccc(-c2ccccc2)cc1	125*
COc1ccc(S(=O)(=O)N(C)C[C@H]2Oc3ccc(NC(=O)CCCCCC(=O)Nc4ccccc4N)cc3C(=O)N([C@@H](C)CO)C[C@@H]2C)cc1	-22
COc1ccc(NC(=O)Nc2ccc3c(c2)C(=O)N([C@@H](C)CO)C[C@@H](C)[C@@H](CN(C)S(=O)(=O)c2cn(C)cn2)O3)cc1	1
COC(=O)c1ccc(C(=O)OC)c(NC(=O)CN2C(=O)c3cccc4cccc2c34)c1	-15
O=C(NCc1ccccn1)c1cccnc1SCCS(=O)(=O)c1ccc(C(F)(F)F)cn1	38
N#Cc1ccc(-c2cccs2)nc1SCC(=O)Nc1sc2c(c1C#N)CCCC2	44
C[C@@H]1CN([C@@H](C)CO)C(=O)c2cc(NC(=O)CCC(F)(F)F)ccc2O[C@H]1CN(C)S(=O)(=O)c1ccccc1	1
C[C@@H]1CN([C@H](C)CO)C(=O)c2cc(NC(=O)Nc3ccc(F)cc3)ccc2O[C@H]1CN(C)Cc1ccc(-c2ccccc2)cc1	126*
C[C@@H]1CCCCO[C@@H](CN(C)C)[C@@H](C)CN([C@H](C)CO)C(=O)c2cc(NS(=O)(=O)c3cccs3)ccc2O1	4
C[C@@H]1CN([C@@H](C)CO)C(=O)Cc2cc(NS(C)(=O)=O)ccc2O[C@@H]1CN(C)C(=O)Nc1ccc(C(F)(F)F)cc1	9
COc1ccc(S(=O)(=O)N(C)C[C@H]2Oc3ccc(NC(=O)CCN4CCOCC4)cc3C(=O)N([C@H](C)CO)C[C@@H]2C)cc1	10
C[C@@H]1CN([C@@H](C)CO)C(=O)c2cccc(NS(=O)(=O)c3ccc(Cl)cc3)c2O[C@@H]1CN(C)Cc1ccccc1	49
C[C@@H]1CN([C@@H](C)CO)C(=O)c2cccc(NS(=O)(=O)c3cccs3)c2O[C@@H]1CN(C)Cc1ccc2c(c1)OCO2	16
C[C@@H]1CN([C@@H](C)CO)C(=O)c2cc(NC(=O)C3CC3)ccc2O[C@@H]1CN(C)Cc1ccc2c(c1)OCO2	18
C[C@H]1CN([C@@H](C)CO)C(=O)Cc2cc(NC(=O)CCC(F)(F)F)ccc2O[C@@H]1CN(C)S(=O)(=O)c1cn(C)cn1	-2
COC(=O)C1=C(C)N(C)C(=O)NC1c1ccc(OC)c(Br)c1 (configuration not stated)	2
C[C@H](CO)N1C[C@H](C)[C@H](CN(C)C(=O)NC2CCCCC2)Oc2c(NC(=O)Nc3ccc(C(F)(F)F)cc3)cccc2C1=O	71
Cc1noc(C)c1S(=O)(=O)Nc1ccc2c(c1)CC(=O)N([C@H](C)CO)C[C@@H](C)[C@@H](CN(C)S(=O)(=O)c1cccs1)O2	7
C[C@@H]1CN([C@@H](C)CO)C(=O)c2cc(NC(=O)CCN3CCOCC3)ccc2O[C@H]1CN(C)S(=O)(=O)c1ccccc1	12
CC(Oc1ccc(Cl)cc1Cl)C(=O)Nc1ccc2oc(-c3ccncc3)nc2c1 (configuration not stated)	37
COc1ccc(NC(=O)Nc2ccc3c(c2)C(=O)N([C@@H](C)CO)C[C@H](C)[C@@H](CN(C)C(=O)NC(C)C)O3)cc1	-11
COc1ccc(NC(=O)Nc2ccc3c(c2)C(=O)N([C@H](C)CO)C[C@H](C)[C@H](CN(C)S(=O)(=O)c2ccc(C)cc2)O3)cc1	70
CC(C)(C)c1ncc(S(=O)(=O)c2ccc(C(F)(F)F)cn2)c(N)n1	15
COc1ccc(NC(=O)Nc2ccc3c(c2)C(=O)N([C@H](C)CO)C[C@H](C)[C@@H](CN(C)Cc2ccc(C(F)(F)F)cc2)OCCCC[C@@H](C)O3)cc1	110*
Cc1noc(C)c1S(=O)(=O)Nc1ccc2c(c1)C(=O)N([C@H](C)CO)C[C@@H](C)[C@H](CN(C)CC1CC1)O2	-7
C[C@@H]1CN([C@H](C)CO)C(=O)c2cc(NC(=O)Nc3ccccc3)ccc2O[C@@H]1CN(C)C(=O)Nc1ccc(C(F)(F)F)cc1	87*
C[C@H]1CN([C@@H](C)CO)C(=O)c2cccc(NC(=O)Nc3ccc4c(c3)OCO4)c2O[C@H]1CN(C)S(=O)(=O)c1cn(C)cn1	-3
C[C@@H]1CN([C@H](C)CO)C(=O)c2cccc(NS(=O)(=O)c3ccc(F)cc3)c2O[C@@H]1CN(C)Cc1ccc2c(c1)OCO2	13
O=C(CSc1nnc(-c2ccncc2)o1)NC(=O)Nc1ccccc1	10
COc1cc(O)c2c(=O)cc(-c3ccc(O)cc3)oc2c1	-23
Cc1ccc(S(=O)(=O)N(C)C[C@@H]2Oc3ccc(NC(=O)NC(C)C)cc3C(=O)N([C@@H](C)CO)C[C@H]2C)cc1	6
C[C@@H]1CN([C@H](C)CO)C(=O)c2cc(NS(=O)(=O)c3cn(C)cn3)ccc2O[C@H]1CN(C)S(C)(=O)=O	-16
C[C@H](CO)N1C[C@H](C)[C@@H](CN(C)Cc2ccc3c(c2)OCO3)Oc2c(NC(=O)Nc3ccccc3)cccc2C1=O	30
C[C@@H]1CCCCO[C@@H](CN(C)Cc2ccncc2)[C@@H](C)CN([C@H](C)CO)C(=O)c2cc(NC(=O)c3ccncc3)ccc2O1	2
CC(C)c1nc(/N=C/N(C)C)nc(=O)n1C	12
COc1ccc(NC(=O)Nc2ccc3c(c2)CC(=O)N([C@H](C)CO)C[C@@H](C)[C@H](CN(C)Cc2ccncc2)O3)cc1	39
CNC[C@@H]1Oc2ccc(NS(=O)(=O)c3ccc(OC)cc3)cc2CC(=O)N([C@@H](C)CO)C[C@@H]1C	9

Three compounds from above, arranged by formula weight, lowest first:
SMILES	NOMO-1 viab
Cc1noc(C)c1S(=O)(=O)Nc1ccc2c(c1)C(=O)N([C@H](C)CO)C[C@@H](C)[C@H](CN(C)CC1CC1)O2	-7
C[C@@H]1CN([C@H](C)CO)C(=O)c2cc(NS(=O)(=O)c3cn(C)cn3)ccc2O[C@H]1CN(C)S(C)(=O)=O	-16
C[C@H](CO)N1C[C@H](C)[C@@H](CN(C)Cc2ccc3c(c2)OCO3)Oc2c(NC(=O)Nc3ccccc3)cccc2C1=O	30

New compounds follow.
SMILES	NOMO-1 viab
C=C(C(=O)O)[C@@H]1CC[C@@]2(C)CC[C@@H](O)C(=C)C2C1 (some centres not stated)	10
COc1ccc(NC(=O)Nc2cccc3c2O[C@H](CN(C)S(=O)(=O)c2ccc(C)cc2)[C@H](C)CN([C@@H](C)CO)C3=O)cc1	33
CC(NS(=O)(=O)c1ccc(Cl)cc1)C(=O)Nc1cccc2ccccc12 (configuration not stated)	14
CCc1c(O)nc(SCC(=O)Nc2ccc(OC)cc2)n(-c2ccccc2)c1=O	-3
C[C@H](CO)N1C[C@H](C)[C@H](CN(C)Cc2ccc(-c3ccccc3)cc2)Oc2ccc(NS(=O)(=O)c3cccs3)cc2CC1=O	60
C[C@H]1CN([C@@H](C)CO)C(=O)c2cc(NC(=O)CCN3CCOCC3)ccc2O[C@H]1CN(C)Cc1ccc2c(c1)OCO2	3
COc1ccc(CN(C)C[C@@H]2Oc3ccc(NS(C)(=O)=O)cc3CC(=O)N([C@@H](C)CO)C[C@@H]2C)cc1	25
COc1ccc(OC)c(NC(=O)COc2ccc3c(=O)c(-c4ccc(OC)c(OC)c4)c(C(F)(F)F)oc3c2)c1	36
CC(C)NC(=O)Nc1ccc2c(c1)C(=O)N([C@H](C)CO)C[C@H](C)[C@@H](CN(C)Cc1ccc3c(c1)OCO3)OCCCC[C@@H](C)O2	23
C[C@@H]1CCCCO[C@@H](CN(C)S(=O)(=O)c2ccccc2)[C@@H](C)CN([C@H](C)CO)C(=O)c2cc(NC(=O)Nc3ccc(F)cc3)ccc2O1	40
C[C@H](CO)N1C[C@H](C)[C@H](CN(C)Cc2ccc(Oc3ccccc3)cc2)Oc2ccc(NC(=O)CCC(F)(F)F)cc2C1=O	114*
C[C@H]1CN([C@@H](C)CO)C(=O)c2cccc(NC(=O)c3cnccn3)c2O[C@@H]1CN(C)C(=O)Nc1ccc(F)cc1	-2
C[C@@H]1CN([C@H](C)CO)C(=O)Cc2cc(NC(=O)Nc3cccc4ccccc34)ccc2O[C@H]1CN(C)Cc1ccc(-c2ccccc2)cc1	64
COc1ccc2cc(C(=O)NCc3ccco3)c(=O)oc2c1	-23
Cc1ccc(S(=O)(=O)N(C)C[C@@H]2Oc3ccc(NC(=O)Nc4ccccc4)cc3C(=O)N([C@H](C)CO)C[C@H]2C)cc1	28
COc1ccc(NC(=O)Cc2coc3c(C)c(C)ccc23)c(OC)c1	28
COc1ccccc1NC(=O)CSc1ncc(-c2ccccc2)nn1	-13
C[C@@H]1CCCCO[C@H](CN(C)S(C)(=O)=O)[C@@H](C)CN([C@H](C)CO)C(=O)c2cc(NC(=O)c3ccncc3)ccc2O1	-1
Cc1cccc(N(CC(=O)Nc2ccc(F)cc2)S(C)(=O)=O)c1C	10
CCOC(=O)C1CCN(S(=O)(=O)Cc2ccccc2)C1=O (configuration not stated)	112*
C[C@H]1CN([C@@H](C)CO)C(=O)c2cccc(NS(=O)(=O)c3cn(C)cn3)c2O[C@H]1CN(C)Cc1ccc(C(=O)Nc2ccccc2N)cc1	25
COc1ccc(NC(=O)Nc2ccc3c(c2)C(=O)N([C@H](C)CO)C[C@@H](C)[C@H](CN(C)C(=O)Nc2ccc(OC)cc2)O3)cc1	19
C[C@H]1CN([C@@H](C)CO)C(=O)c2cccc(NC(=O)NC3CCCCC3)c2O[C@H]1CN(C)Cc1ccc(-c2ccccc2)cc1	30
Cc1sc2ncn(CC(=O)Nc3ccc(Oc4ccccc4)cc3)c(=O)c2c1C	20
Cc1ccc(S(=O)(=O)N(C)C[C@H]2Oc3ccc(NC(=O)Nc4ccc(C(F)(F)F)cc4)cc3C(=O)N([C@H](C)CO)C[C@H]2C)cc1	92*
CS(=O)(=O)N(CC(=O)Nc1c(F)cccc1F)Cc1ccccc1	-7
COc1ccc(NC(=O)Nc2cccc3c2O[C@H](CN(C)Cc2ccccc2)[C@H](C)CN([C@H](C)CO)C3=O)cc1	34
C[C@H](CO)N1C[C@H](C)[C@H](CN(C)C(=O)Nc2ccc3c(c2)OCO3)Oc2ccc(NC(=O)CCC(F)(F)F)cc2CC1=O	26
Cc1sc2ncnc(SCC(=O)NC3CCCCC3)c2c1C	4
Cc1ccc(S(=O)(=O)Nc2ccc3c(c2)C(=O)N([C@H](C)CO)C[C@H](C)[C@@H](CN(C)C(=O)Cc2ccccc2)OCCCC[C@@H](C)O3)cc1	4
CCC(=O)Nc1ccc(Cl)c(NC(=O)COc2cc(C)cc(C)c2)c1	1
C[C@@H]1CN([C@H](C)CO)C(=O)Cc2cc(NC(=O)Nc3ccc(F)cc3)ccc2O[C@@H]1CN(C)Cc1ccc(C(=O)O)cc1	-2
Cc1noc(C)c1S(=O)(=O)Nc1ccc2c(c1)CC(=O)N([C@@H](C)CO)C[C@H](C)[C@@H](CN(C)Cc1ccc(Oc3ccccc3)cc1)O2	16
C[C@H](CO)N1C[C@H](C)[C@@H](CN(C)S(=O)(=O)c2ccc(F)cc2)Oc2ccc(NC(=O)Cn3cnnn3)cc2C1=O	5
CCOc1ccc(C(=O)CC(N)C(=O)O)cc1 (configuration not stated)	30
C[C@@H]1CN([C@H](C)CO)C(=O)c2cccc(NS(=O)(=O)c3ccc(F)cc3)c2O[C@H]1CN(C)Cc1ccc(C(F)(F)F)cc1	32
C[C@@H]1CN([C@H](C)CO)C(=O)c2cc(NC(=O)C3CC3)ccc2O[C@@H]1CN(C)S(C)(=O)=O	-10

Copied from above for reference:
SMILES	NOMO-1 viab
COc1ccc(NC(=O)Nc2cccc3c2O[C@H](CN(C)Cc2ccccc2)[C@H](C)CN([C@H](C)CO)C3=O)cc1	34
C[C@H](CO)N1C[C@H](C)[C@H](CN(C)C(=O)Nc2ccc3c(c2)OCO3)Oc2ccc(NC(=O)CCC(F)(F)F)cc2CC1=O	26
Cc1sc2ncnc(SCC(=O)NC3CCCCC3)c2c1C	4
Cc1ccc(S(=O)(=O)Nc2ccc3c(c2)C(=O)N([C@H](C)CO)C[C@H](C)[C@@H](CN(C)C(=O)Cc2ccccc2)OCCCC[C@@H](C)O3)cc1	4
CCC(=O)Nc1ccc(Cl)c(NC(=O)COc2cc(C)cc(C)c2)c1	1
C[C@@H]1CN([C@H](C)CO)C(=O)Cc2cc(NC(=O)Nc3ccc(F)cc3)ccc2O[C@@H]1CN(C)Cc1ccc(C(=O)O)cc1	-2
Cc1noc(C)c1S(=O)(=O)Nc1ccc2c(c1)CC(=O)N([C@@H](C)CO)C[C@H](C)[C@@H](CN(C)Cc1ccc(Oc3ccccc3)cc1)O2	16
C[C@H](CO)N1C[C@H](C)[C@@H](CN(C)S(=O)(=O)c2ccc(F)cc2)Oc2ccc(NC(=O)Cn3cnnn3)cc2C1=O	5
CCOc1ccc(C(=O)CC(N)C(=O)O)cc1 (configuration not stated)	30
C[C@@H]1CN([C@H](C)CO)C(=O)c2cccc(NS(=O)(=O)c3ccc(F)cc3)c2O[C@H]1CN(C)Cc1ccc(C(F)(F)F)cc1	32
C[C@@H]1CN([C@H](C)CO)C(=O)c2cc(NC(=O)C3CC3)ccc2O[C@@H]1CN(C)S(C)(=O)=O	-10
